# Sa RN4220 lethal: kills Staphylococcus aureus RN4220; AID 1259311; 330,000 compounds, 0.33% hits; inhibition, % (no concentration beside the values); S. aureus RN4220 growth, OD600, 16 h;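 active = z-score of -3 or lower and OD600 up to 0.18 on both plates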;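 note: plate controls were untreated cells for no effect and reference antibiotic for full effect; stock transfer was 100 nL into about 80 µL; one replicate is shown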
# Sa ugtP lethal: growth inhibition of S. aureus ugtP deletion strain; growth inhibition, % (no concentration beside the values); AID 1259309; S. aureus RN4220 ugtP deletion, OD600 growth, 16 h; some inactives read as strong as hits; 330,000 compounds, 0.54% hits;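 active = z-score under -3 and OD600 up to 0.15 on both plates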;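 note: plate controls were untreated wells for no effect and antibiotic for full effect; wells of about 80 µL received 100 nL stock; the first replicate is given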
# BJeLR lethal: BJeLR cell viability loss; BJeLR (HRASV12) viability, CellTiter-Glo ATP luminescence, 48 h; reference of the scale not given here; inhibition, % (no concentration beside the values); 300,000 compounds, 0.17% hits;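 active = replicate mean above 50%; inconclusive = above 50% but judged a plate artefact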;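 note: 50 nL library stock added to about 25 µL; numbers are from one replicate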
# PrP UTR inh: inhibition of PrP 5' UTR reporter expression; cell-based PrP 5' UTR mRNA reporter, plate reader; inhibition, % (concentration not given with the values); 340,000 compounds, 0.35% hits;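 active = every replicate at 50% or more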;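 note: 0 = median of the neutral control wells; tested in H4 reporter cells; numbers are from one replicate; inactives centre near -14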
# Mtb hypoxia rep: reduces hypoxia-regulated biosensor signal in M. tuberculosis | M. tuberculosis hypoxia-regulated fluorescent reporter, fluorescence | fluorescence inhibition, % (concentration not given with the values) | 300,000 compounds, 0.1% hits;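 active = 35 to 45% if threefold the growth effect, above 45% if 1.5-fold the growth effect; inactive = the rest, general growth blockers included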;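 note: wells of about 50 µL received 100 nL stock; 0% = vehicle wells and 100% = reference inhibitor wells; whole bacteria with a GFP reporter of the hypoxia response; strong numbers were not always called active; many hits fall short of the cut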
# Bead autofluor: flagged as autofluorescent in microsphere protease counterscreen; compound autofluorescence counterscreen, microsphere flow cytometry; hits give high values; fluorescence intensity (test concentration not listed); 360,000 compounds, 3.1% hits;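 active = at least 3 SD above the mean of all compounds, about 16000 in these data; inconclusive = too few beads counted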;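 note: 100 nL of 1 mM stock went into each well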
# Mtb hypoxia rep growth: also measured in Mtb hypoxia rep; calls as there; growth inhibition, %; measured here: M. tuberculosis growth (absorbance);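 0% = vehicle and 100% = reference antibiotic; read after six days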
# Active calls of the source: *; ? = inconclusive; . = not tested or not shown; & = joins results of further samples.
SMILES,Sa RN4220 lethal,Sa ugtP lethal,BJeLR lethal,PrP UTR inh,Mtb hypoxia rep,Mtb hypoxia rep growth,Bead autofluor
C#CCn1c(=NC(=O)c2ccc(Cl)s2)sc2cccc(OC)c21,8.8,26,7,-56,2,6,5878
CC(NC(=O)C1CCCN(S(=O)(=O)c2cnc[nH]2)C1)c1ccccc1 (stereo not given),3.5,3,-5,-55,.,.,3961
Cc1ccc(S(=O)(=O)NCCC(=O)Nc2cccc(S(=O)(=O)N3CCCC3)c2)cc1C,2.7,0,.,-4,4,8,3667
O=C(c1csc2c1CCCC2)N1CCN(c2ccccc2)CC1,5.0,5,-5,-23,.,.,?
O=C(C1=CC(c2ccccc2)CC(OCCCCO)O1)N1CCN(Cc2ccc3c(c2)OCO3)CC1 (stereo not given),6.7&4.8,8&2,.,.,20&-3,8&3,.
COc1cccc(CNC(=O)COC(=O)C2CC3CCCC(C2)C3=O)c1 (stereo not given),7.1,6,15,-20,7,3,7166
O=C(COC(=O)CNC(=O)C1CCCCC1)NCc1ccccc1,-1.0,0,.,-12,0,-9,3795
COc1ccc(-c2noc(N3CCC(C(=O)NC(C)c4ccccc4)CC3)n2)cc1 (stereo not given),2.9,-7,10,-21,-4,5,6021
COc1ccccc1OCCNC(=O)CCNS(=O)(=O)c1ccc(C)cc1,5.0,5,.,-21,-6,6,4851
COC(=O)c1ccccc1NC(=O)Nc1cc(C)cc(C)n1,2.7,7,-4,-12,15,7,21356*
O=C(c1ccccc1)N(c1ccccc1)C1C=CS(=O)(=O)C1 (stereo not given),4.8,4,-3,-26,.,.,4999
O=C(NC12CC3CC(CC(C3)C1)C2)c1cc([N+](=O)[O-])ccc1Cl,-4.6,-6,-5,4,-23,-3,3840
O=C(/C=C/c1ccco1)Nc1ccccn1,2.0,2,23,-20,7,5,10772
Cc1ccc(CNC(=O)/C=C/c2c(Cl)cccc2Cl)cc1,.,.,-3,-19,.,.,2232
COCCn1nnnc1C(c1cccs1)N1CCN(c2nc3ccccc3s2)CC1 (stereo not given),1.5,10,-13,-21,10,0,12831
COc1cc(OC)c(C(=O)Nc2ccc(S(=O)(=O)Nc3ncccn3)cc2)cc1OC,1.2,4,-4,-11,26,25,21604*
CSc1ccc(CN2CCN(CC=C(C)C)C(CCO)C2)cc1 (stereo not given),22,6,7,-2,1,8,3851
Cc1ccc(C)c(N(CC(=O)NC2CCCC2)C(=O)CCC(=O)Nc2nccs2)c1,3.1,2,-5,-4,7,6,3631
COc1ccccc1-c1ocnc1C(=O)Nc1ccc(N2CCOCC2)cc1N1CCOCC1,2.1,12,-10,-19,4,-4,3766
COc1cccc(C(=O)N(C)CC(=O)Nc2cccc3ccccc23)c1,1.2,4,.,.,8,14,?

# 6 entries from above, with bars between the fields.
SMILES | Sa RN4220 lethal | Sa ugtP lethal | BJeLR lethal | PrP UTR inh | Mtb hypoxia rep | Mtb hypoxia rep growth | Bead autofluor
COCCn1nnnc1C(c1cccs1)N1CCN(c2nc3ccccc3s2)CC1 (stereo not given) | 1.5 | 10 | -13 | -21 | 10 | 0 | 12831
O=C(c1ccccc1)N(c1ccccc1)C1C=CS(=O)(=O)C1 (stereo not given) | 4.8 | 4 | -3 | -26 | . | . | 4999
O=C(c1csc2c1CCCC2)N1CCN(c2ccccc2)CC1 | 5.0 | 5 | -5 | -23 | . | . | ?
Cc1ccc(C)c(N(CC(=O)NC2CCCC2)C(=O)CCC(=O)Nc2nccs2)c1 | 3.1 | 2 | -5 | -4 | 7 | 6 | 3631
COc1ccc(-c2noc(N3CCC(C(=O)NC(C)c4ccccc4)CC3)n2)cc1 (stereo not given) | 2.9 | -7 | 10 | -21 | -4 | 5 | 6021
C#CCn1c(=NC(=O)c2ccc(Cl)s2)sc2cccc(OC)c21 | 8.8 | 26 | 7 | -56 | 2 | 6 | 5878

# Back to the main list; the three compounds before the break are reprinted first.
SMILES,Sa RN4220 lethal,Sa ugtP lethal,BJeLR lethal,PrP UTR inh,Mtb hypoxia rep,Mtb hypoxia rep growth,Bead autofluor
Cc1ccc(C)c(N(CC(=O)NC2CCCC2)C(=O)CCC(=O)Nc2nccs2)c1,3.1,2,-5,-4,7,6,3631
COc1ccccc1-c1ocnc1C(=O)Nc1ccc(N2CCOCC2)cc1N1CCOCC1,2.1,12,-10,-19,4,-4,3766
COc1cccc(C(=O)N(C)CC(=O)Nc2cccc3ccccc23)c1,1.2,4,.,.,8,14,?
CCN(CCCNC(=O)CCn1c(=O)[nH]c2ccccc2c1=O)c1ccccc1,4.0,0,0,-30,16,5,4574
COc1ccc(C2CC=C(C(=O)O)CN2S(=O)(=O)c2ccc(C)cc2)cc1OC (stereo not given),0.6,0,.,.,7,14,.
CN(C)CCCN=Cc1c(O)n(CCc2ccccc2)c(=O)[nH]c1=O,2.6,1,0,-17,-4,6,8768
O=C(Cc1ccccc1F)NNC(=O)c1cccs1,3.2,1,.,-15,4,2,3688
COc1ccc(CC2(CO)CCN(Cc3ccncc3)CC2)cc1,12,7,13,-3,9,4,4516
C=CCn1c(COc2cccc(C)c2C)nnc1SCC(=O)N1CCN(c2ccccc2)CC1,-4.4,-25,-5,4,-1,-8,1947
COc1ccc(N2CCN(Cc3nc(-c4ccc(Cl)cc4Cl)no3)CC2)cc1,5.1,6,3,-3,4,10,20566*
CC(C(=O)Nc1ccc(F)c(F)c1F)N(C)CC(=O)Nc1ccccc1Br (stereo not given),5.9,-9,-3,-19,2,10,2673
CCOC(=O)C1CCN(C(=O)c2ccc3c(=O)n4c(nc3c2)CCCCC4)CC1,-0.8,1,-3,3,-7,0,5792
O=C(CP(=O)(c1ccccc1)c1ccccc1)Nc1nc2ccc(Cl)cc2s1,-3.6,18,0,-22,20,7,5325
CCCC(=O)NC(=S)Nc1ccccc1N1CCOCC1,5.7,12,-8,-11,13,8,2147
CCN1CCN(c2ccc(NC(=O)c3cc(S(=O)(=O)N4CCCC4)ccc3Cl)cc2)CC1,3.8,10,.,-13,19,30,3237
O=S(=O)(Nc1cccc(-c2ccc3nncn3n2)c1)c1ccc(Cl)s1,5.4,4,-4,-20,8,14,2071
CC(C)(C)c1ccccc1OCCOCCNCc1ccccc1,-2.6,-14,8,-13,-12,9,2239
COc1ccccc1C(=O)Nc1ccnn1C1CCN(CC2CC=CCC2)CC1 (stereo not given),.,.,-8,-23,.,.,5986
CCCC[C@@H]1C=C(C(=O)O)[C@H](c2ccc3c(c2)OCO3)N1S(=O)(=O)c1ccc(C)cc1,15,19,.,-2,-2,3,2901
COC(=O)c1cn(NC(=O)c2ccncc2)c(=O)c2ccccc12,2.8,1,-6,-10,9,4,3732
COc1ccc(/C(O)=C/c2nc3ccc(C(=O)NCCc4cccc(C)c4)cc3[nH]c2=O)cc1OC,12,-5,-3,-9,9,4,6939
Cc1cccc(C)c1NC(=O)C(c1cccc([N+](=O)[O-])c1)N(C)C(=O)c1ccccn1 (stereo not given),5.3,14,1,-10,0,-4,10066
COc1ccc(C(=O)Nc2nc(C)c3cc4c(cc3n2)OCO4)cc1,-2.0,-3,-6,-12,38*,-48*,2716
CC(C)c1c(C(=O)N/N=C/c2cccnc2)nnn1-c1nonc1N,.,.,1,-17,.,.,4713
COC(=O)c1cc(C)sc1NC(=S)N1CCN(CCc2ccccc2)CC1,9.4,-3,-3,-22,-4,2,4470
O=C(NC1CCCCC1)C1CCN(c2nnnn2-c2ccccc2)CC1,9.2,-16,-1,-23,1,10,8634
Cc1sc(NC(=O)c2ccc3ncsc3c2)c(C(N)=O)c1C,6.2,-7,-6,-119,2,0,5240
CCOc1ccc2cc(C3CC(c4ccco4)=NN3S(C)(=O)=O)c(=O)[nH]c2c1 (stereo not given),3.1,15,10,-12,-7,-14,6443
Cc1occc1C(=O)NNS(=O)(=O)c1ccc(Cl)cc1,3.4,-4,1,-18,4,6,2416
COc1ccc(S(=O)(=O)N2CCOCC2)cc1NC(=O)c1ccc(OC(F)F)cc1,-2.5,-2,.,9,-6,-7,.
C=CCn1c(=O)/c(=C/c2ccc(F)cc2)s/c1=C(\C#N)c1nnc2n1CCCCC2,.,.,-14,-2,.,.,8811
CCC(NC(=O)c1cc(COc2ccc(C)nc2)on1)c1ccc(C)cc1 (stereo not given),-5.3,10,12,-3,2,5,4514
Clc1cccc(OCc2nc(-c3ccncc3)no2)c1,5.1,12,-2,-24,8,5,2544
COc1ccc(/C=C/C(=O)OCC(=O)Nc2cc(C(N)=O)cc(C(N)=O)c2)cc1,.,.,8,-11,.,.,2241
Cc1ccc(CNC(=O)C2CCC(=O)N(CCc3ccccc3)C2)s1 (stereo not given),2.2,2,3,-18,7,3,.
O=S(=O)(Nc1nc2ccccc2nc1Nc1cccc(S(=O)(=O)N2CCCCC2)c1)c1ccccc1,.,.,23,-2,.,.,10525
O=c1c2c(-c3ccc([N+](=O)[O-])cc3)ccnc2[nH]n1-c1ccccc1,-2.1,15,-4,-38,5,1,4057
CCCCOC(=O)c1ccc(NC(=O)C(=O)NCc2ccncc2)cc1,.,.,7,-13,.,.,9730
CCN1CCN(CC(=O)Nc2sc3c(c2C#N)CCC3)CC1,7.7,8,-6,2,7,6,2205
COC(=O)[C@@]12CCCCN1C(c1ccc(-c3ccc(OC)cc3)cc1)C1C(=O)N(C)C(=O)C12 (stereo not given in full),2.8&-1.6,10&-1,.,.,-6&9,4&13,.
O=C(NNC1CC(=O)N(c2ccc(Cl)cc2)C1=O)c1ccccc1Cl (stereo not given),5.2,0,-5,-11,11,-2,3363
N#Cc1cccc(CN2CCC(=O)N([C@H](CO)c3ccccc3)CC2)c1,.,.,5,3,.,.,3972
COc1cc(/C=N/Nc2nc3ccccc3s2)cc([N+](=O)[O-])c1O,.,.,9,-24,.,.,4792
O=C(c1cc(-c2ccccc2Cl)nc2ccccc12)N1CCN(c2ccccn2)CC1,3.3,1,.,-3,-5,-2,3718
Cc1cccc(CCNS(=O)(=O)c2ccc3c(c2)CCN3C(=O)CCC(=O)O)c1,0.5,-1,-2,-18,-5,5,4619
CNC(=S)NN=Cc1c(C)c(C(=O)c2ccc(F)cc2)n2ccccc12,4.9,11,.,.,-1,4,.
Cc1cc(=O)oc2cc(NC(=O)c3cc([N+](=O)[O-])ccc3N3CCOCC3)ccc12,5.7,11,-3,-37,13,14,3205
O=c1c2ccc(Cl)cc2[nH]c(=S)n1Cc1cccnc1,.,.,3,-1,.,.,21022*
CC(C(=O)N1CCN(C=O)CC1)N1C(=O)c2ccccc2C1=O (stereo not given),-4.2,-7,12,-24,.,.,5151
C=CCNC(=O)Nc1ccc(OCC)cc1,4.8,9,-10,-24,0,1,11058
CC(=O)N1c2ccc(Cl)cc2C2OCCC2C1c1ccco1 (stereo not given),3.0,1,-2,-19,2,1,5926
COC(=O)c1cc(Cn2nc(C(=O)O)c3ccccc3c2=O)oc1C,1.4,-1,6,0,3,-3,3237
COc1ccc(NC(=O)Nc2cnccn2)c(OC)c1,6.4,1,8,-16,8,2,5761
O=C(NC1CCN(Cc2ccccc2)CC1)C1CCCN(c2nnc(-n3cccc3)s2)C1 (stereo not given),.,.,9,-8,.,.,5956
CC(=NNS(=O)(=O)c1ccc(CC(C)C)cc1)c1ccncc1,6.4,7,.,.,3,-5,.
O=C(NN=Cc1ccncc1)c1cccc(NC(=O)c2ccccc2Cl)c1,0.4,0,.,.,-1,-2,.
Cc1onc(C(=O)N2CCN(c3ccccc3F)CC2)c1-c1ccccc1Cl,1.3,-5,-11,-9,8,6,1979
Cc1cc(NC(=O)c2cc(-c3ccc(OC(C)C)cc3)nc3ccccc23)no1,4.5,-2,1,-27,-2,-5,5210

# Hits appear at their usual frequency; about 4.1% have a hit in one of these screens.
